Six1-Eya2 inh – qHTS Assay for Inhibitors of the Six1/Eya2 Interaction. Homeobox protein SIX1 (Homo sapiens) + Protein phosphatase EYA2 (Homo sapiens), …. AlphaScreen GST-Six1/His-Eya2 binding, biochemical; stronger effect = lower value; control for the full effect not named in the record. activity change, % (test concentration not listed). hit rate 0.56% among 360,000. AID 651725, 2012; in the data active = activity change below about -65%; inconclusive = about -30% to -65%; inactive = above about -30%; also: % is scaled to controls: 0 for no effect and ±100 for the full control effect; compound concentration not given in the record
Target sequence (O00167 whole entry, looked up): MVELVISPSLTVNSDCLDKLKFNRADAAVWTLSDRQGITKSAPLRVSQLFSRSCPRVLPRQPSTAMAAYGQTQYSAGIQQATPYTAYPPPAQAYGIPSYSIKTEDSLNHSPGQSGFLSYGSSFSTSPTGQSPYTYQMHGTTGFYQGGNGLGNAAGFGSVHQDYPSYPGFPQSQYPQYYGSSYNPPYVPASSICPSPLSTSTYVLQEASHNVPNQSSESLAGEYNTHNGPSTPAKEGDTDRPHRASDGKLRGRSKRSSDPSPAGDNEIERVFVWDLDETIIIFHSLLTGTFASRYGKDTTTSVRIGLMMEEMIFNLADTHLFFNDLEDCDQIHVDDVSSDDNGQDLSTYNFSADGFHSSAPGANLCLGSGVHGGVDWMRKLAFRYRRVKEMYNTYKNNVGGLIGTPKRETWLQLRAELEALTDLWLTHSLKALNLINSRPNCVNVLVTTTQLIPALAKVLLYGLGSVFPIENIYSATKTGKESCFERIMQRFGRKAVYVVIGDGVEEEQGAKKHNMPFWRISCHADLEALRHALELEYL
Target sequence (Q15475 whole entry, looked up): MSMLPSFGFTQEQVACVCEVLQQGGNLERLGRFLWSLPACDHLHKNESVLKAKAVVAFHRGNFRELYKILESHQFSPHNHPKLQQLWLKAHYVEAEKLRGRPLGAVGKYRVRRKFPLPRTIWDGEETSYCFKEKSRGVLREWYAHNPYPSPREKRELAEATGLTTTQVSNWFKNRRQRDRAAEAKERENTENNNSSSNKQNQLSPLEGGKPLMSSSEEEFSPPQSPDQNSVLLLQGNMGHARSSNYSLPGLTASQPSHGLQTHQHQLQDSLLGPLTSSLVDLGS
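Homogeneous AlphaScreen proximity assay pairing GST-Six1 with His-tagged Eya2 (added as 5X mix: 250 nM and 500 nM) in 50 mM Tris pH 8.0, 300 mM NaCl, 1 mM TCEP. Glutathione donor and nickel acceptor beads; 1 h, 37 °C, dark.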
D2 ag – Beta-Arrestin HTS for Positive Allosteric Modulators of the Human D2 Dopamine Receptor: Agonists | D(2) dopamine receptor (Homo sapiens), P14416 | DiscoveRx PathHunter D2 beta-arrestin, luminescence, 90 min; 100% = 57 uM dopamine signal | activation, % (test concentration not listed) | hit rate 0.084% among 360,000 | AID 624465, 2012; in the data active = activation above about 40%; inconclusive = about 15% to 40%; inactive = below about 15%; also: compound concentration not given in the record; the text of the record calls up to 30% inactive
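DiscoveRx PathHunter D2 beta-arrestin cells (2,100/well) attached overnight, then compound-stimulated 90 min at 37 C in HBSS/10 mM HEPES/0.1% Tween-20 buffer; beta-galactosidase complementation read by luminescence after 1 h at ambient temperature. Dopamine 57 uM final (EC100) as control.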
CtBP-E1A inh – qHTS Assay for Inhibitors of the CtBP/E1A Interaction. AID 651724, 2012. CtBP / adenovirus E1A interaction (AlphaScreen). activity change, % (no concentration beside the values). hit rate 0.49% among 340,000. AlphaScreen GST-E1A/His-CtBP binding, 1536-well; stronger effect = lower value; control for the full effect not named in the record; in the data active means activity change below about -65%; inconclusive means about -30% to -65%; inactive means above about -30%; also: % is scaled to controls: 0 for no effect and ±100 for the full control effect; compound concentration not given in the record
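In 5 uL wells, 23 nL compound meets equimolar GST-E1A and His-CtBP (5X stock 125 nM each) for 2 h, 37 °C. Beads (5X, 50 ug/mL) then 1 h, 37 °C, dark.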
TRPML1 inh – qHTS for Inhibitors of the Human Mucolipin Transient Receptor Potential 1 (TRPML1); Mucolipin-1 (Homo sapiens), Q9GZU1; TRPML1-inducible cells, Ca2+ dye fluorescence, FDSS; stronger effect = lower value; inhibition of EC80 agonist-evoked calcium signal; activity change, negative = inhibition, % (test concentration not listed); hit rate 0.02% among 390,000; AID 624415, 2012; in the data active means activity change below about -50%; inconclusive means about -30% to -50%; inactive means above about -30%;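 also: stimulus is agonist 54-4 at its EC80 concentration; % is scaled to controls: 0 for no effect and ±100 for the full control effect; compound concentration not given in the record; the text of the record puts the active cut at -80%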
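TRPML1-DL cells, Tet-induced overnight (~16 h, 37 °C) at 1,500 cells/well, were loaded with Ca8 no-wash dye plus quencher for 45-90 min at room temperature. Compounds were pinned during FDSS kinetic reading; agonist 54-4 at EC80 (4 uM final) then added.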
PINK1 expr mod – A Quantitative High throughput Screen to Identify Chemical Modulators of PINK1 Expression; PINK1 immunofluorescence, high-content cytometry, 24 h; Potency, µM (top dose mostly 76.6 µM), inactives show at the highest dose activation (PINK1 increase), actives largely listed as activators; hit rate 0.2% among 410,000; active = well fitted activation curve with a large enough effect; inconclusive = small, poorly fitted or top-dose-only effect; inactive = flat fitted curve, though single readings scatter; cell line not stated here;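 also: potency is read from the fitted curve at half-maximal effect; % of control where 0% means no effect; nearly all actives have a fitted effect of over 65% in size; a mitochondrial uncoupler was the plate control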
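A stable cell line was treated with compounds at 5 concentrations for 24 hours, with CCCP as control. PINK1 levels and mitochondrial localization were measured by immunofluorescence with mitochondrial, cell and nuclear markers after fixation, read by laser-scanning cytometry.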
TRPML1 ag – qHTS for Agonists of the Human Mucolipin Transient Receptor Potential 1 (TRPML1). AID 624414, 2012. Mucolipin-1 (Homo sapiens), Q9GZU1. TRPML1-expressing cells, Ca2+ dye fluorescence, FDSS; host cell line not named in the record; reference of the full effect not given here. hit rate 0.12% among 410,000. activation, % (test concentration not listed); in the data active = activation above about 50%; inconclusive = about 30% to 50%; inactive = below about 30%; also: 0% is about no effect; the text of the record puts the active cut at 80%
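Calcium fluorescence on an FDSS kinetic reader gave the read-out. Tet-induced TRPML1-DL cells were plated overnight, dye-loaded (Ca8 with quencher, 45-90 min, room temperature, dark), then read 110 s after compound addition, and again 110 s after 4uM final 54-4 (EC80).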
The depositor's hits bear a star; ? = inconclusive; . = not tested or not shown; & = joins results of further samples; [ ] = dose if it differs, or a comment.

SMILES	Six1-Eya2 inh	D2 ag	CtBP-E1A inh	TRPML1 inh	PINK1 expr mod	TRPML1 ag
CC1CCC2(CC1)NC(=S)N(C(C)(C)C)N2 (stereo not given)	10	1.6	7	-11	-0.7%	0.4
C=COCCNC(=O)Nc1ccc(Cl)cc1Cl	0	-4.2	7	-9	2.2%	-0.8
CCOC(=O)NN1C(=O)c2ccccc2NC1c1cccnc1 (stereo not given)	11	7.7	1	-11	1.8%	1.2
CCCc1c(C)nc(N2CCN(c3cccc(OC)c3)CC2)[nH]c1=O	-4	0.4	1	-12	2.7%	0.5
CCN(C(=O)C1CCCN(c2nc(-c3ccc(OC)cc3)no2)C1)c1ccc(OC)cc1 (stereo not given)	-9	0.7	-1	14	2.6%	2.9
COc1ccc(OC)c(S(=O)(=O)NCc2cccn2Cc2cccc(C)c2)c1	.	.	.	5	-0.6%	0.8
CCCN1C(=O)SC(CC(=O)Nc2ccccc2C)C1=O (stereo not given)	10	-2.5	0	-11	0.8%	-0.6
Cc1cc(Nc2ccccc2)nc(NCc2ccccc2)n1	6	0.8	0	-3	1.5%	1.8
COc1ccc(CCNC(=O)CCCn2nc(C)c3sc4ccccc4c3c2=O)c(OC)c1	.	.	.	-4	0.4%	1.3
Cc1c(C)c2ccc(OC(C)C(=O)NCCc3c[nH]c4ccccc34)cc2oc1=O (stereo not given)	-11	2.4	-7	.	0.0%	.
Cc1sc2nc(SCC(=O)c3cccs3)n(Cc3ccco3)c(=O)c2c1C	18	-1.1	54	-23	?	2.2
CC1(C)Cc2c(sc3nnn(CC(=O)Nc4ccccc4)c(=O)c23)CO1	0	-1.3	4	1	1.0%	-0.4
CC(=O)N1CCN(c2nc(C)nc3sc4c(c23)CCC(C)C4)CC1 (stereo not given)	0	-3.0	-2	-2	-1.9%	1.9
COc1cc(NC(=O)CN2C(=O)C(=O)N(CC(C)C)C2=O)cc(OC)c1	8	-3.7	-8	-6	0.5%	0.0
Cc1cc(S(=O)(=O)N2CCOCC2)ccc1OCC(=O)NCCN1CCOCC1	13	-1.0	29	-8	2.7%	-0.5
CCc1ccc(CNC(=O)c2sc3ncccc3c2-n2c(C)ccc2C)cc1	.	.	.	92	2.8%	2.4
COc1ccc(NC(=O)C/C(C)=N/NC(=O)c2ccncc2)c([N+](=O)[O-])c1	3	-2.7	-25	12	-0.2%	-0.3
C/C(=N\N=C1\NC(=O)C(CC(=O)NCc2ccccc2)S1)C(C)C (stereo not given)	8	-4.0	0	10	2.1%	-0.2
Cc1cccc(NC(=O)Nc2nnc(-c3ccccc3)o2)c1	-3	-1.0	-6	-1	0.9%	0.7
O=C(c1ccc(S(=O)(=O)N2CCCC2)cc1)N1CCCC(C(F)(F)F)C1 (stereo not given)	9	1.7	-1	-20	0.2%	0.0
CC(=O)Oc1ccc(/C(C)=N\N2CCN(Cc3ccc(Cl)cc3)CC2)cc1	-12	-4.2	-7	-9	1.3%	0.3
Cc1cc(/C=C(\C#N)C(=O)NCc2cccs2)c(C)[nH]1	2	-3.7	-11	17	26%	0.8
COc1cc(NC(=O)CN2c3ccccc3CC2C)cc(OC)c1OC (stereo not given)	-8	0.8	0	8	0.2%	0.0
O=S1(=O)Nc2c(cc(Cl)c3ccc(Cl)nc23)-c2ccccc21	.	.	.	23	0.4%	0.9
C[C@@H]1CN([C@H](C)CO)C(=O)CCCn2cc(nn2)CO[C@H]1CN(C)C(=O)Nc1ccc(C(F)(F)F)cc1	0	-11	4	-14	1.1%	0.0
CC(C)(C)NC(=O)C(c1ccc(Cl)cc1)N(Cc1ccco1)C(=O)CCl (stereo not given)	2	3.5	7	-4	0.4%	1.3
Cc1cc(S(=O)(=O)NCc2ccncc2)c(C)cc1Br	2	0.8	-3	-8	-0.5%	0.9
CC1CCCCN1Cc1c(O)ccc2c(=O)c(-c3cccc(Cl)c3)c(C(F)(F)F)oc12 (stereo not given)	.	.	.	-18	0.1%	-0.2
Cc1cc(C)cc(NC(=O)CN2CCN(c3ccccn3)CC2)c1	2	2.2	-6	6	2.7%	1.2
COCCSc1nnc(NC(=O)CSCc2ccccc2)s1	0	-1.9	13	-11	-2.9%[38.3 µM]	2.9
COc1cccc2cc(C(=O)NC3CC4CCC3C4)oc12 (stereo not given)	0	0.3	5	15	-0.4%	0.4
Cc1nnsc1NC(=O)OCc1ccc(C(C)(C)C)cc1	-6	0.2	9	3	0.2%	0.8
Cc1cccc(N2CCN(S(=O)(=O)c3ccc4c(c3)C(C)(C)C(=O)N4C)CC2)c1C	-18	-0.8	?	-8	-1.0%	-0.4
O=C(Nc1ccc(NC(=O)c2sc3ccccc3c2Cl)cc1)c1ccco1	13	-2.1	9	-5	3.9%	-0.4
CCc1ccccc1NC1=NCC(=O)N1C1CCCC1	2	-7.0	2	-7	-0.4%	1.0
Cc1cn2c(=O)cc(COc3cccc(NC(=O)c4cccc(F)c4)c3)nc2s1	.	.	.	5	2.4%	-0.3
O=C(Cn1cc2c(n1)CCCCC2)NCc1ccccn1	-1	-1.0	-1	17	1.9%	-0.3
Cc1[nH]nc2c1C(CCc1ccccc1)C(C#N)=C(N)O2 (stereo not given)	-12	0.6	-22	0	7.0%[38.3 µM]	0.7
CCC1(CC)Cc2ccccc2-c2nc(CN(C)C)[nH]c(=O)c21	6	-2.7	-21	-8	7.3%	0.2
Cc1ccc(-c2nc3c(c(SCC(=O)N4CCCCC4)n2)Cc2cc(C)ccc2O3)cc1	.	.	.	35	1.9%	-0.6
CCn1c(=N)n(CC(=O)c2ccc(Cl)c(Cl)c2)c2ccccc21	67	2.2	25	22	-1.2%	1.0
O=C(Nc1nc(-c2ccc(F)c(F)c2)cs1)c1cnccn1	-1	-2.2	1	-1	1.1%	0.0
Cc1ccc(N=Nc2cc(C)ccc2N)cc1	?	-9.9	-80*	.	11%	.
COc1ccc(N(C(=O)c2ccco2)S(=O)(=O)c2cc(OC)ccc2OC)cc1	7	-4.2	11	-13	-1.1%	-1.7
Cc1cc(C)n(-c2nc(SCC(=O)O)c3c4c(sc3n2)COC(C)(C)C4)n1	-26	3.5	-20	-4	-1.4%	-0.4
Cc1ccc(CN(C)C(=O)CN2C(=O)NC3(CCCc4ccccc43)C2=O)c(C)c1 (stereo not given)	4	-0.9	.	-7	0.2%	-0.8
O=[N+]([O-])c1cc(Cl)ccc1Nc1ccccc1	-78*	5.5	.	-5	-0.9%	-1.6
COc1ccc(NS(=O)(=O)c2cc(NC(=O)CCNC(C)=O)ccc2N2CCCCC2)cc1	-2	2.2	-2	-11	2.8%	-0.2
OC(c1ccc(Cl)c(F)c1)c1ncc(-c2cccc3ccccc23)[nH]1 (stereo not given)	-10	-1.1	0	.	16%	0.6
O=C(c1ccccc1)N1CCN(CC#Cc2ccccc2)CC1	14	2.5	4	-11	-1.6%	0.4

In the list so far, 3 contain a CF3 group.
SMILES	Six1-Eya2 inh	D2 ag	CtBP-E1A inh	TRPML1 inh	PINK1 expr mod	TRPML1 ag
O=C(c1ccc(S(=O)(=O)N2CCCC2)cc1)N1CCCC(C(F)(F)F)C1 (stereo not given)	9	1.7	-1	-20	0.2%	0.0
C[C@@H]1CN([C@H](C)CO)C(=O)CCCn2cc(nn2)CO[C@H]1CN(C)C(=O)Nc1ccc(C(F)(F)F)cc1	0	-11	4	-14	1.1%	0.0
CC1CCCCN1Cc1c(O)ccc2c(=O)c(-c3cccc(Cl)c3)c(C(F)(F)F)oc12 (stereo not given)	.	.	.	-18	0.1%	-0.2

Other results follow:
SMILES	Six1-Eya2 inh	D2 ag	CtBP-E1A inh	TRPML1 inh	PINK1 expr mod	TRPML1 ag
Cn1c(=O)c2c(nc(SCC(=O)NCC3CCCO3)n2C)n(C)c1=O (stereo not given)	0	-2.4	2	-3	7.0%[38.3 µM]	0.6
COc1ccc(NC(=O)C2Cc3ccccc3O/C2=N\O)cc1 (stereo not given)	5	12	11	-7	0.6%	1.1
COc1cccc(C(=O)Nc2cccnc2)c1OC	-8	-2.3	5	7	1.4%	-0.9
C=CC[C@@H](CC(=O)OC(C)(C)C)C(=O)OC[C@@H]1CCCN1C(=O)[C@@H](CC=C)CC(=O)N[C@H](CO)Cc1ccccc1	-4	3.2	3	-14	3.5%	0.1
Nc1nnc(Cc2ccc(Cl)c(Cl)c2)s1	5	0.0	1	35	-0.5%	-0.2
CC(=O)Nc1ccc(S(=O)(=O)Nc2ccccc2N2CCOCC2)cc1Cl	-1	-4.6	2	22	0.8%	0.1
CCOc1ccc(C(=O)NCc2ccncc2)cc1	12	1.0	-1	1	-1.5%	0.8
CN(C(=O)c1ccccc1-c1ccccc1C(=O)O)c1ccccc1	4	-0.4	-12	-4	1.2%	-0.3
O=C(CSc1ncnc2c1oc1ccccc12)NC1CCCCC1	-13	-1.2	-12	-16	1.6%	-0.6
O=C(Cc1cccs1)N/N=C/C=C\c1ccco1	-18	-1.0	4	-8	0.6%	1.4
COc1ccc(S(=O)(=O)NCc2ccco2)cc1C(=O)N1CCCCC1	6	0.4	-12	4	2.1%	-0.7
CC(C)(C)c1ccc(C(=O)NCCc2ccccc2)cc1	-11	-4.9	-1	.	0.2%	.
COc1ccc(-n2c(C)nc3c(cnn3-c3ccc(C)cc3)c2=O)cc1	0	-1.2	-13	50	-0.3%	0.9
CN(C)C(=O)c1ccc(NS(=O)(=O)c2ccc3c(c2)OCCO3)cc1	-1	-2.0	-9	-3	0.5%	1.0
COc1cccc(-c2cnc3c(NC(C)=O)cc(-c4cc(OC)c(OC)c(OC)c4)cn23)c1	-13	-2.7	-14	.	3.4%	-0.8
C=CCOC(=O)C1=C(C)NC(SCC(=O)NC(=O)OCC)=C(C#N)C1c1cccnc1 (stereo not given)	-5&0	1.2&-1.3	6&3	5&30	-0.3%	0.9&3.4
COc1cc(NC(=O)C2CCC(=O)N2S(=O)(=O)c2ccc(C)cc2)cc(OC)c1 (stereo not given)	0	3.1	1	22	0.8%	2.1
COc1ccc(NC(=S)NC(NC(=O)/C=C/c2ccccc2)C(Cl)(Cl)Cl)cc1 (stereo not given)	-1	-0.1	7	-23	12%	0.3
O=C1CC(c2cc(F)ccc2F)c2cc3c(cc2N1)CCC3 (stereo not given)	10	-2.0	-1	-1	6.8%	-0.5
O=CNC1(c2ccccc2)CCCCC1	8	0.2	-13	-9	2.1%	0.8
COc1cc2nc(NCc3ccccc3)n3nc(-c4ccccc4)nc3c2cc1OC	.	.	.	10	1.2%	-0.3
CC(C)c1noc(-c2ccccc2OCC(=O)Nc2ccccc2[N+](=O)[O-])n1	.	.	.	-10	0.5%	2.8
